Biofilm kill mix – mixtures killing C. albicans biofilm. 120,000 compounds, 0.02% hits. inhibition, % at 7.6 µM. C. albicans biofilm persisters + clotrimazole, fluorescence viability; primary screen in compound mixtures of four per well. AID 1242;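 active = inhibition above 30.3% in the primary screen of four-compound pools, then above 30% when the compound was retested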;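 also: compounds exposed to preformed 24 h biofilms for 48 h; the number belongs to the whole pool; some results filed as inactive read as strong as hits; inactives centre near 12; 0% = biofilm with clotrimazole alone and 100% = kill control; retested singly at about 60 µM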
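Probe or stimulus – Clotrimazole 50 µg/mL co-treatment · System – C. albicans biofilms · Schedule – 24 h biofilm formation, then 48 h compound exposure, 37 °C · Evaluation – percent inhibition of biofilm viability · Technique – 2-h Alamar Blue fluorescence, 535/590 nm excitation/emission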
* hit, by the source's call. This is a subset (hit frequency here may not be typical).

SMILES | Biofilm kill mix
Cc1nn(C)cc1NC(=O)CC12CC3CC(CC(C3)C1)C2 | 9.2
CC1=NN(C(C#N)c2ccccc2)C(c2ccccc2)C1 (stereo unspecified) | -1.4
CCC(C(=O)NC(C)(C)C)N(C(=O)c1ccc(Cl)nc1)C1CCCC1 (stereo unspecified) | 30.3
CC(/C=C/c1ccccc1)=N/NC(=O)Cn1nnc(N)n1 | 15.6
CCC(=O)Nc1ccc(C(=O)CSc2nnc(-c3ccccc3F)n2CCc2ccccc2)cc1 | 5.8
COc1cc(/C=N/NC(=O)COc2c(C)cc([N+](=O)[O-])cc2C)ccc1OC(=O)c1ccccc1Br | 6.1
CC(C)C(=O)N1CCN(c2ccccc2NC(=O)c2cc([N+](=O)[O-])ccc2N2CCOCC2)CC1 | 15.7
O=C(COc1ccc(Cl)cc1)NCc1nnc(SCC(=O)NCC2CCCO2)o1 (stereo unspecified) | 13.6
CCNc1nc(OC)nc(N2CCC(Cc3ccccc3)CC2)n1 | 21.9
CCOc1ccc(NC(=O)C2C3C=CC4(CN(C(C(=O)OC)C(C)C)C(=O)C24)O3)cc1 (stereo unspecified) | 18.3
COc1ccccc1CNC(=O)c1ccc(-c2ccccc2Cl)o1 | 4.8
O=c1cc(O)c2c(=O)n(Cc3ccccc3)c3ccccc3c2o1 | -3.8
Cc1ccccc1OCC(O)CN(CCO)Cc1ccccc1 (stereo unspecified) | 8.4
FC(F)(F)c1cccc(Cc2noc(CN3CCCC(CN4CCCC4)C3)n2)c1 (stereo unspecified) | 17.3
Cc1cc(F)c(F)cc1C(=O)N1CCCC1 | 4.3
O=C(CC(NC(=O)C(F)(F)F)c1ccccc1)Nc1nnc(CCc2ccccc2)s1 (stereo unspecified) | 16.4
COc1ccc(CN2CCNC(=O)C2CC(=O)NCc2cccc(C)n2)c(OC)c1 (stereo unspecified) | 15.2
COc1ccc(CNC(=O)NC(C)(C)c2cccc(C(C)(C)NC(=O)NCc3ccc(OC)cc3)c2)cc1 | 4.4
Cc1ccc(NC(=O)COC(=O)Cn2cnc3c2c(=O)n(C)c(=O)n3C)cc1Cl | 0.4
CCCCOc1ccc(/C=N/NC(=O)C2CCCNC2=O)cc1 (stereo unspecified) | 20.5
CC(C)(C)NC(=O)c1cc([N+](=O)[O-])ccc1N1CCCCC1 | 8.4
O=C(COc1ccccc1C(=O)Nc1ccccc1)NCCc1ccccc1 | 0.1
N#C/C(=C\c1cccnc1)C(=O)Nc1ccccc1 | 17.2
Cc1cc(NS(=O)(=O)c2ccc(NC(=O)c3ccc(Br)o3)cc2)nc(C)n1 | 28.9
COC(=O)C1=C(C)N(Cc2ccccc2)C(=O)N[C@H]1c1ccc(Br)cc1 | 17.4
CC(Sc1nnnn1-c1ccc(Cl)cc1)C(=O)NCC(=O)Nc1ccc(F)c(F)c1F (stereo unspecified) | 7.2
COc1cccc(NC(=O)c2csc3c2CCCC3)c1 | 14.3
Cn1c(-c2ccc(=O)[nH]c2)nc2ccccc21 | -0.9
COc1cc(/C=N/NC(=O)Nc2ccccc2)ccc1OC(C)=O | 8.2
Fc1cccc(-c2nnn3c2nc(Cl)c2ccccc23)c1 | 41.1
CCOC(=O)c1nnn2c1nc(N1CCN(C)CC1)c1ccccc12 | 9.2
O=C1CC(C(=O)O)S/C(=N\NC(=O)c2ccc(F)cc2)N1 (stereo unspecified) | 15.4
Cc1ccc(C(=O)NC(=S)Nc2ccccc2N2CCCC2)cc1[N+](=O)[O-] | 10.8
CCN(CC)S(=O)(=O)c1ccc(/C=C/C(=O)Nc2ccc(Br)cc2F)cc1 | 9.7
COc1cc2c(-c3ccc(O)cc3)nc3c(c(C)nn3-c3ccccc3)c2cc1OC | 15.7
CC(=O)Nc1ccc2nc(SCC(=O)N3CCOCC3)sc2c1 | 14.8
O=C(N/N=C/c1cccnc1)c1cccs1 | 23.8
Cc1cc(C(=O)CSc2nnnn2C)c(C)n1Cc1ccco1 | 10.9
CCOC(=O)c1ccc(NC(=O)C2CC(=O)Nc3nc4ccccc4n32)cc1 (stereo unspecified) | 13.7
CCC(C)/C(C)=N/NC(=O)c1ccccc1OCCOc1ccccc1 (stereo unspecified) | 12.0
COc1ccc(C(=O)N2CCC(n3c(C)nc4cc(F)ccc43)CC2)cc1 | 14.9
COc1ccc(/C=c2\s/c(=C(/C#N)C(=O)NCc3ccco3)n(-c3ccccc3)c2=O)cc1 | 5.6
CN(C)c1ccc(/C=C(\C#N)C(=O)NCc2ccco2)cc1 | 12.1
Cc1cccc(N2C(=S)NC3c4ccccc4OC2(C)C3C(=O)N(C)C)c1 (stereo unspecified) | -0.9
CN(C(=O)COc1ccccc1)C1CCS(=O)(=O)C1 (stereo unspecified) | 4.9
O=C(NNC(=O)c1ccccc1-c1ccccc1C(=O)O)c1ccccc1 | 26.6
Cc1ccc(C(=O)N/N=C\C=C\c2ccc(Br)cc2)cn1 | 17.1
NS(=O)(=O)c1ccc(CNC(=O)Cc2c(F)cccc2Cl)cc1 | 5.9
COc1cc(NC(=O)c2cccc(Cl)c2)ccc1NC(=O)c1cccs1 | 18.7
O=C(O)CCCCCNc1ccc2nsnc2c1[N+](=O)[O-] | 7.2

(further entries)
SMILES | Biofilm kill mix
COc1ccc(/C(C)=N/NC(=O)C2C3CCCCC32)c(OC)c1 (stereo unspecified) | 20.2
CC(C)(C)c1nc(Sc2ncccc2[N+](=O)[O-])n[nH]1 | 22.5
COC(=O)c1sccc1NC(=O)CSCC(=O)O | 8.9
Cc1sc(NC(=O)c2ccccc2)c(C(c2ccccn2)N2CCN(CCO)CC2)c1C (stereo unspecified) | 6.8
Cc1ccc(NC(=O)c2cccs2)cc1[N+](=O)[O-] | 26.7
O=c1c2c(nc3cc(-c4cccc(F)c4)[nH]n13)CCC2 | 6.7
O=C(NCc1ccc(F)cc1)c1ccc[nH]1 | 11.4
CC(C)(C)NC(=O)c1cc(-c2ccccc2)n[nH]1 | 14.0
CCc1cccc(C)c1NC(=O)COC(=O)c1ccc2c(c1)S(=O)(=O)c1ccccc1C2=O | 17.4
O=C(/C=C/c1ccc([N+](=O)[O-])cc1)NNC(=O)C1CC1 | 9.0
CCCCCCC(=O)N=Nc1c(O)[nH]c2ccc([N+](=O)[O-])cc12 | 13.6
CCOC(=O)c1c(NC(=O)COc2ncnc3ccccc23)sc(C)c1CC | 21.1
CCCCC1=CC2=CC(=O)C(C)(OC(=O)CC)C(=O)C2=CN1CCN1CCOCC1 (stereo unspecified) | 14.5
Cc1cc(C)nc(-n2ncc3c2CC(c2ccccc2C)CC3=O)n1 (stereo unspecified) | 7.8
O=C(C1CCN(C2CCN(C/C(Cl)=C/c3ccccc3)CC2)CC1)N1CCOCC1 | 7.8
O=C(N/N=C/c1c(-c2ccccc2)[nH]c2ccccc12)c1cccnc1 | 9.9
O=C(NCc1n[nH]c(=S)n1-c1ccc(F)cc1)c1ccc(S(=O)(=O)N2CCOCC2)cc1 | 11.5
COc1ccc(CN2C(=O)c3oc4ccccc4c(=O)c3C2c2ccc(O)c(OC)c2)cc1 (stereo unspecified) | 26.1
CCOC(=O)c1c(CSc2ccsc2)n(C)c2cc(Br)c(O)c(CN(C)C)c12 | 16.7
COc1ccc(C(=O)C[n+]2cccc(C)c2)cc1 | 0.6
Fc1ccccc1Oc1nc(-c2ccncc2)nc2ccccc12 | 9.1
COc1ccccc1/C=C1/SC(=O)N(CCC(=O)Nc2ccc(S(=O)(=O)Nc3nccs3)cc2)C1=O | 7.2
O=C(CSc1ccc(-c2ccco2)nn1)c1ccc(F)cc1 | 18.3
Cc1cc(/C=C2\NC(=O)N(Cc3ccc(Cl)cc3)C2=O)c(C)n1C | 6.4
O=C(NN=C1CCCC1)c1[nH]c2ccc(Br)cc2c1-c1ccccc1 | -6.3
O=C(NCCN1CCCC1)c1ccc(Cl)cc1 | 12.8
Cc1cc(C)cc(N(CC(=O)Nc2ccccc2-c2ccccc2)S(=O)(=O)c2ccccc2)c1 | 10.2
COC(=O)c1cc2nc(-c3ccc(C)cc3)cc(C(F)(F)F)n2n1 | -1.7
COc1ccc(NC(=O)C(c2ccc(C)cc2)N(C)C(=O)CC2NC(=O)NC2=O)cc1 (stereo unspecified) | 13.1
COC(=O)Cc1[nH]n(-c2ccccc2)c(=O)c1C=Nc1ccc(C)cc1 | 31.4
Cn1c(SCc2ccccc2)nnc1-c1ccco1 | 6.5
Nc1ccccc1C(=O)Nc1ccc(Cl)cc1Cl | 7.9
O=C(NN1CCOCC1)c1cc(-c2ccc(Cl)c(Cl)c2)nc2ccccc12 | 12.0
N#CCc1c(C#N)c(N)nc(Nc2ccccc2)c1C#N | 14.2
CC(=O)CSc1nc2cc3c(cc2cc1C#N)OCCO3 | 22.9
Cc1ccc(SCC(=O)NCC2CCCO2)cc1 (stereo unspecified) | 18.9
CCN(CC)S(=O)(=O)c1cccc(C(=O)NCC(c2ccccc2)N(C)C)c1 (stereo unspecified) | 5.2
CCOC(=O)C(=NCCCN1CCOCC1)NNc1cccc(C(F)(F)F)c1 | 15.7
Cn1ccs/c1=N\C(=O)Nc1cccc(Cl)c1 | 11.0
Cc1nnc(SCC(=O)c2ccc(Cl)cc2)s1 | -5.5
COc1ccc(-c2ccc(CCC(=O)O)n2CC(=O)Nc2cccc(OC)c2)cc1 | 6.4
CCNC(=O)c1ccc(N(C)S(=O)(=O)c2cccs2)cc1 | 8.0
CN(C)c1nc(Cl)nc(N(C#N)CCOc2ccccc2)n1 | 17.7
COC(=O)CC1(C(=O)OC)Oc2ccc(Br)cc2C(=O)N1c1cc(Cl)c(Cl)cc1Cl (stereo unspecified) | 5.5
O=C(O)CCCN1C(=O)C2C3CC(C2C1=O)C1C(c2ccccc2)c2sc(=O)n(-c4ccccc4)c2SC31 (stereo unspecified) | 15.8
c1ccc(NCC2OCc3ccccc3CO2)cc1 | 12.8
CCCCN(CC)CCCNC(=O)c1ccc(CSc2nc3ccncc3[nH]2)cc1 | 10.3
C[N+]12CCCCC1[C@@H](CO)CCC2 (stereo partly specified) | 12.6
CCC(=O)N1C(=O)C2(Nc3ccccc3N2)c2ccccc21 | 32.0
CN(C)c1c(F)cc(C(=O)NCc2ccccc2)cc1F | 14.9

Carrying on:
SMILES | Biofilm kill mix
CCCOC(=O)c1ccc(-c2ccc(C=O)o2)cc1 | 11.8
O=C(NCCN1CCCCCC1)C1CCCN1S(=O)(=O)c1cccc2nsnc12 (stereo unspecified) | 18.5
Cc1c(/C=N\NC(=O)c2cc3ccccc3o2)c2ccccc2n1C | 20.9
COC(=O)c1ccc(S(=O)(=O)NCc2ccc(OC)cc2)n1C | 8.5
COCCNc1nc(C)cc(-c2cc(C(=O)NC3CCCC3)on2)n1 | 15.2
COc1cccc(C(=O)NC(=S)Nc2ccc(N(C)C)cc2)c1 | 14.3
Cc1cc(N/C=C/C(=O)c2ccc(Br)cc2)no1 | 6.8
COc1cc(/C(C)=N/N2CCOCC2)cc(OC)c1OC | 22.2
Cc1n[nH]c(C)c1CS(=O)(=O)c1ccccc1 | -5.3
Cc1ccc(N2C(S)=C(C#N)C(=O)NC23CCCCC3)cc1 | 3.9
CC1CN(C(=S)Nc2ccccc2)N(c2ccccc2)C1 (stereo unspecified) | -0.7
Cc1ccc(N2C(=O)N(CC(=O)Nc3ccc(C)c(C)c3[N+](=O)[O-])C(=O)C2C)cc1 (stereo unspecified) | 6.0
NS(=O)(=O)c1ccc2ccccc2c1 | 12.7
O=C(Cc1ccc(Cl)cc1)Nc1ncccn1 | 2.3
CC(C)c1ccc(NC(=O)N2CCN(S(=O)(=O)c3ccccc3)CC2)cc1 | 6.2
CC(=O)Nc1cccc(OCc2ccc(F)cc2)c1 | 6.8
Nc1nnc(CSCc2cccc(Br)c2)s1 | 9.3
COc1ccc2cnnc(SCC(=O)Nc3ccc(C(C)=O)cc3)c2c1OC | 4.0
COc1ccc(N=Cc2nc(-c3ccccc3)oc2OC(=O)c2ccccc2)cc1 | 3.0
Cc1cc(C)c(COc2ccc(/C=N/n3c(C)n[nH]c3=S)cc2)c(C)c1 | 15.5
S=C(NCCCN1CCOCC1)Nc1cccc(Cl)c1 | -3.4
O=C1NC(=Nc2cccnc2)S/C1=C/c1ccc(F)cc1 | 20.9
Cc1cc(/C=N/NC(=O)c2ccncc2)c(C)n1-c1ccccc1 | 18.5
COc1ccc(CC(=O)N2N=C(C)CC2(O)C(F)(F)F)cc1 (stereo unspecified) | 14.6
O=C(Nc1ccc(Cl)cc1C(F)(F)F)C(Sc1cccc[n+]1[O-])c1ccccc1 (stereo unspecified) | 26.7
C=CCn1c(O)c(N=NC(=O)OCC)c2ccccc21 | 12.3
Cn1c(=O)c(=O)n(C)c2cc(S(=O)(=O)NCc3ccc(Cl)cc3)ccc21 | 11.8
CC1CCN(S(=O)(=O)c2ccc(S(=O)(=O)N3CCC4(CC3)OCCO4)cc2)CC1 | 5.3
CCOC(=O)C1CCCN(C(=O)c2sc3nc(C)nc(N(CC)CC)c3c2C)C1 (stereo unspecified) | 7.1
O=C(Cn1nc(-c2ccccc2)c2ccccc2c1=O)NN1CCOCC1 | 9.8
COc1cc(/C=C/C(=O)NCc2nc3ccccc3[nH]2)cc(OC)c1OC | 10.6

Reformatted with each value named: four of the compounds above.
> COc1ccc(CN2C(=O)c3oc4ccccc4c(=O)c3C2c2ccc(O)c(OC)c2)cc1 (stereo unspecified)
  Biofilm kill mix = 26.1

> COc1cccc(C(=O)NC(=S)Nc2ccc(N(C)C)cc2)c1
  Biofilm kill mix = 14.3

> CCc1cccc(C)c1NC(=O)COC(=O)c1ccc2c(c1)S(=O)(=O)c1ccccc1C2=O
  Biofilm kill mix = 17.4

> COc1ccc(CC(=O)N2N=C(C)CC2(O)C(F)(F)F)cc1 (stereo unspecified)
  Biofilm kill mix = 14.6

Screens (PubChem)
